# From PubChem
# RE007 growth inh: qHTS Assay for Inhibitors of the HIV-1 protein Vpr; S. pombe RE007 Vpr strain, BacTiter-Glo ATP luminescence, 24 h; control for the full effect not named in the record; Potency, µM (doses to about 92.2 µM), for the others: at the top dose activity change, negative = less growth; hit rate 0.21% among 360,000; AID 651644, 2012; active = well fitted falling curve with a large enough effect; inconclusive = small, poorly fitted or top-dose-only effect; inactive = no such curve, though single readings can be large or run the other way;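 further: on the % scale 0 is the no-effect control and ±100 the full control effect; nearly all actives have a fitted effect of over 50% in size; the assay follows cell death caused by Vpr and the record does not say whether a fall means rescue or toxicity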
#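 Fission yeast strain RE007, carrying one chromosomally integrated HIV-1 vpr copy, was seeded at OD 0.01 in PMG+AL medium with 23 nL pinned compound. After 24 h at 30 °C and 99% humidity, viability was read by BacTiter-Glo luminescence.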
# SARS PLpro yeast: qHTS of Yeast-based Assay for SARS-CoV PLP; hit rate 0.19% among 330,000; S. cerevisiae expressing SARS-CoV PLpro, growth rescue; control for the full effect not named in the record; Potency, µM (series often up to 32.9 µM), for the others: top-dose activity, positive = growth rescue; active means well fitted rising curve with a large enough effect; inconclusive means small, poorly fitted or top-dose-only effect; inactive means no such curve, though single readings can be large or run the other way; further: 0% is about no effect; nearly all actives have a fitted effect of over 55% in size; growth read by luminescence after 48 h
# Cruzain inh noDet: qHTS Assay for Promiscuous and Specific Inhibitors of Cruzain (without detergent). Cruzipain (Trypanosoma cruzi), P25779. purified cruzain, Z-FR-AMC fluorescence, no detergent. Potency, µM, for inactives: max response, negative = inhibition, most hits filed as inhibitors. hit rate 2.3% among 200,000;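 further: plate controls were enzyme without inhibitor for no effect and buffer without enzyme for full effect; nearly all actives have a fitted effect of over 40% in size; top concentration of the series not given in the record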
# Target sequence (P25779 123-467 limits assumed): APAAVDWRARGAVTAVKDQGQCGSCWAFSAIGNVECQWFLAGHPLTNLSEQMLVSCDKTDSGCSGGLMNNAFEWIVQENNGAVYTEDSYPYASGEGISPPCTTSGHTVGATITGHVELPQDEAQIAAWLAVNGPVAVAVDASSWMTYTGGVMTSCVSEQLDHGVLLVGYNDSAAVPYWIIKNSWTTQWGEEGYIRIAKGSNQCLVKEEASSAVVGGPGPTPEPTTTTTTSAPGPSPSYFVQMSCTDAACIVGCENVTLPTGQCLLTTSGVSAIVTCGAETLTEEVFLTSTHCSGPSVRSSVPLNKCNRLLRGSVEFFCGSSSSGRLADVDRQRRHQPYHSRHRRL
#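 Purified cruzain at 1.5 nM, pre-incubated 15 min with compound at room temperature in 100 mM sodium acetate pH 5.5, 5 mM DTT, 0.00005% Triton X-100. Reaction started with 2 uM Z-FR-AMC; AMC fluorescence increase over 60 s gives rate.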
# Cruzain inh Det: qHTS Assay for Promiscuous and Specific Inhibitors of Cruzain (with detergent). AID 1478, 2009. Cruzipain (Trypanosoma cruzi), P25779. hit rate 0.43% among 200,000. purified cruzain, Z-FR-AMC fluorescence, 0.01% Triton. Potency, µM, inactives show max response, negative = inhibition, actives largely listed as inhibitors;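 further: plate controls were neutral wells for no effect and buffer without enzyme for full effect; nearly all actives have a fitted effect of over 40% in size; top concentration of the series not given in the record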
#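 Cruzain (1.5 nM) preincubated 15 min at RT with compound in 100 mM sodium acetate pH 5.5, 5 mM DTT, 0.01% Triton X-100. Reaction started with 2 uM Z-FR-AMC; AMC fluorescence (ex 360/em 450 nm) change over 60 s gave rate.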
# NS1 function inh: qHTS Assay for Inhibitors of Influenza NS1 Protein Function; S. cerevisiae slowed by influenza A NS1, growth recovery by OD600; Potency, µM (top dose mostly 46.1 µM), without a hit: at the highest dose activity, positive = more growth; hit rate 0.4% among 270,000; AID 2326, 2010; active means well fitted rising curve with a large enough effect; inconclusive means small, poorly fitted or top-dose-only effect; inactive means no such curve, though single readings can be large or run the other way; further: nearly all actives have a fitted effect of over 50% in size
#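 In this qHTS, NS1 from influenza A is expressed in budding yeast, where it slows growth. Cells are switched from glucose to 2% galactose medium (pH 6.0, -URA), treated with compound, and growth recovery is read at OD600.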
# 2A StopGo: High Throughput Screening for Foot and Mouth Disease Virus Antivirals. AID 1159524, 2015. hit rate 1.2% among 410,000. Potency, µM (series often up to 57.9 µM), without a hit: at the top dose signal change, negative = less light. human cells with a luciferase reporter of 2A StopGo recoding; control for the full effect not named in the record; active = well fitted falling curve with a large enough effect; inconclusive = small, poorly fitted or top-dose-only effect; inactive = no such curve, though single readings can be large or run the other way; tested in HEK293T cells; further: on the % scale 0 is the no-effect control and ±100 the full control effect; nearly all actives have a fitted effect of over 45% in size; luciferase light after 4 h
# LASV entry inh: qHTS for Inhibitors of binding or entry into cells for Lassa Virus. Lassa virus pseudotype entry inhibition, cell reporter; control for the full effect not named in the record. Potency, µM (highest dose often 37.9 µM), for the others: at the highest dose activity change, negative = inhibition, hits mostly inhibitors. hit rate 1.2% among 300,000. AID 540256, 2011; active means well fitted inhibition curve with a large enough effect; inconclusive means small, poorly fitted or top-dose-only effect, or effect the other way; inactive means flat fitted curve, though single readings scatter; tested in HEK293 cells; further: on the % scale 0 is the no-effect control and ±100 the full control effect; nearly all actives have a fitted effect of over 50% in size; luciferase read-out
# MARV entry inh: qHTS for inhibitors of binding or entry into cells for Marburg Virus; Potency, µM (doses to about 37.8 µM), for inactives: at the highest dose activity change, negative = inhibition, hits mostly inhibitors; hit rate 1.8% among 300,000; AID 540276, 2011; Marburg virus pseudotyped entry inhibition, cell reporter; control for the full effect not named in the record; about a third of the inactives were read at about 46 µM; active = well fitted inhibition curve with a large enough effect; inconclusive = small, poorly fitted or top-dose-only effect, or effect the other way; inactive = flat fitted curve, though single readings scatter; tested in HEK293 cells; about a fifth of its hits are not listed in these tables; further: on the % scale 0 is the no-effect control and ±100 the full control effect; luciferase read-out
# Numbers without * were called inactive; ? = inconclusive; nt = not tested or not shown; & = joins results of further samples; [ ] = remark or other dose. Unless noted, the call rests on the fitted dose curve; in most records, active means well fitted curve in the direction sought with a large enough effect; inconclusive means small, poorly fitted or top-dose-only effect, or another doubt; inactive means no such curve, though single readings can be large; an effect the other way counts as inactive or inconclusive. Potency means the concentration at half of the fitted maximal effect.
SMILES,RE007 growth inh,SARS PLpro yeast,Cruzain inh noDet,Cruzain inh Det,NS1 function inh,2A StopGo,LASV entry inh,MARV entry inh
CCCC(=O)N1CC2(CCC)CN(C(=O)CCC)CC(CCC)(C1)C2=O,18%,3%,2%,5.8%,2%,-28%,6%,?
COCCn1c(SCC#N)nnc1-c1ccc(OC)cc1,0%,10%,-4%,1.0%,15%,nt,0%,5%
O=C1C2C3C=CC(CNS(=O)(=O)c4ccccc4)(O3)C2C(=O)N1c1ccc(Cl)cc1 (stereo not drawn),3.2µM*,-99%,-3%,-4.5%,-45%,-6%,-5%,?
CC(C)n1cnc2c(Nc3cccc(Cl)c3)nc(N(CCO)CCCO)nc21,-11%,-6%,nt,nt,-13%,-16%,nt,nt
CC(=O)N1CCCc2cc(S(=O)(=O)NCCC3=CCCCC3)ccc21,1%,4%,0%,1.1%,-4%,0%,-16%,-21%
CC1C(C#N)=C(N)OC2=C1C(=O)CCC2 (stereo not drawn),14%,-4%,0%,4.7%,11%,-7%,-3%,?
O=C(N/N=C\c1ccc([N+](=O)[O-])o1)c1cncc(Br)c1,-22%,0%,nt,nt,-55%,?,?,?
O=c1cnc2ccccc2n1Cc1ccccc1C(F)(F)F,-23%,10%,nt,nt,-2%,-2%,-14%[46.1 µM],8%[46.1 µM]
Cc1ccc2c(c1)c1c(c(=O)n(-c3cccc(Cl)c3)c(=O)n1CC(=O)NCCC1=CCCCC1)n2C,nt,nt,3%,-0.9%,nt,-5%,0%[46.1 µM],1%[46.1 µM]
CCCCNC(=O)CC(=O)Nc1ccccc1C(=O)O,3%,-5%,-3%,7.3%,3%,7%,18%,-1%
N#CCCn1c(=O)n(CCC#N)c2ccccc21,7%,-1%,nt,nt,4%,-16%,-22%,-21%[46.1 µM]
Cc1ccc(-n2[nH]c(C)c(/C=N/Nc3ccc([N+](=O)[O-])cc3[N+](=O)[O-])c2=O)cc1C,?,-55%,-27%,-20%,-31%,10µM*,?,3%
O=C(CCCCCn1nnc2ccccc2c1=O)Nc1ccccc1Cl,26%,1%,nt,nt,3%,-1%,7%,-6%
O=C(O)c1cc2c(ccc3ccccc32)oc1=O,nt,9%,10µM*,?,-92%,nt,nt,-4%
O=C(Oc1oc(-c2ccco2)nc1C=Nc1ccccc1)c1ccoc1,-18%,2%,?,22µM*,-55%,nt,0%,2%
O=C(Cn1nc(C(=O)O)c2ccccc2c1=O)Nc1cccc(S(=O)(=O)N2CCCC2)c1,-13%,4%,nt,nt,nt,?,25%,?
CCN(CC)CCC#CC1(O)c2ccccc2-c2ccccc21,1%,1%,nt,nt,3%,1%,-24%,nt
O=C(C1CCN(S(=O)(=O)c2ccccc2[N+](=O)[O-])CC1)N1CCOCC1,2%,-1%,nt,nt,4%,11%,nt,nt
COc1ccccc1-c1cc(C(F)(F)F)nc(S(=O)(=O)CCCC(=O)O)n1,-5%,8%,5%,-3.3%,0%,25µM*,7%,?
COc1ccc(CC2C(=O)NC(=O)NC2=O)c(OC)c1,-4%,7%,7%,5.0%,?,-10%,2%,-12%
Cc1oc2cc(Br)c(O)c(Br)c2c1-c1ccccc1,?,-12%,nt,nt,-107%,26%,3%,?
O=C(O)c1cc(-c2ccc(/C=C3\NC(=O)N(c4ccc(Cl)cc4)C3=O)o2)ccc1Cl,-4%,0%,nt,nt,6%,6%,nt,nt
FC(F)(F)c1ccnc(NCc2ccc(Cl)cc2)n1,-17%,1%,nt,nt,-3%,?,?,?
CCc1ccc(NC(=O)CSc2nnc(CNC(=O)c3c(F)cccc3Cl)o2)cc1,2%,0%,-8%,-3.6%,-8%,-9%,11%,13%
O=c1cc(CSc2nnc(NC3CCCCC3)s2)nc2sccn12,2%,1%,nt,nt,nt,-11%,1%[46.1 µM],3%[46.1 µM]
COC(=O)c1ccc2c(=O)n(CCCCCC(=O)N3CCN(c4ccc(Cl)cc4)CC3)c(=O)[nH]c2c1,nt,nt,3%,1.4%,nt,-2%,-2%[46.1 µM],nt
CCOc1cc(C(=O)Nc2nnc(CC)s2)ccc1OCC(=O)N1CCOCC1,-10%,0%,10%,6.4%,5%,-8%,8%,7%[46.1 µM]
NS(=O)(=O)OCC(Cc1ccccc1)N1C(=O)c2ccccc2C1=O (stereo not drawn),6%,4%,nt,nt,5%,-6%,nt,nt
COc1ccc(Oc2nc(-c3ccccc3)ncc2S(=O)(=O)c2ccccc2)cc1,6%,-1%,?,-14%,-4%,-24%,0%,0%[46.1 µM]
CCOC(=O)c1ccc(NC(=S)NC(=O)c2nn(CC)cc2Br)cc1,3%,-14%,?,-2.9%,13%,0%,12%,-3%
Cc1ccc2nc(-c3ccc(NS(=O)(=O)c4ccc(F)cc4)cc3)sc2c1,-2%,-78%,?,-3.8%,-16%,54%[activator],?,?
O=C(COc1cccnc1[N+](=O)[O-])c1c[nH]c2ccccc12,4%,-1%,nt,nt,3%,17%,nt,nt
Cc1ccc(C)c(NC(=O)CSc2nc3[nH]ncc3c(=O)[nH]2)c1,12%,-10%,12%,1.2%,8%,-18%,7%,0%
NS(=O)(=O)c1ccc(NC(=O)c2c(Cl)cccc2Cl)cc1,-1%,1%,nt,nt,0%,-12%,0%,-4%[46.1 µM]
C/C(=C\C=C(C#N)C#N)c1cc(C#N)c(N)o1,-12%,0%,nt,nt,-1%,-22%,3%,1%[46.1 µM]
O=C(NCCSc1ccccc1)c1ccc(CN2CCOCC2)cc1,-13%,-1%,nt,nt,-13%,42%[activator],nt,nt
CN1CCO/C1=C(\C(Cl)=C(Cl)Cl)[N+](=O)[O-],-20%,0%,nt,nt,nt,8%,3%,7%[14.2 µM]
COc1ccc(CCNC(=O)c2cc(=O)[nH]c3ccc(S(=O)(=O)N4CCCCC4C)cc23)cc1OC (stereo not drawn),nt,nt,?,-0.2%,nt,?,1%[46.1 µM],nt
COc1ccccc1C(=O)NCC(=O)OCC(=O)c1ccc2c(c1)-c1ccccc1C2,0%,-16%,10µM*,?,5%,13%,23%,?
CCOc1ccc(OCC(=O)Nc2nnc3n2CCS3)cc1,nt,nt,-4%,-0.1%,nt,-15%,?,nt
O=C(NCCc1nnc2ccccn12)c1cccs1,0%,-2%,nt,nt,-5%,59%[activator],nt,nt
COC(=O)Cc1c(OC)ccn(CCc2c[nH]c3ccccc23)c1=O,11%,-1%,nt,nt,nt,44%[activator],?,-14%[46.1 µM]
CCc1cccc(NC(=O)CSc2nc3ccsc3c(=O)n2CC)c1,nt,nt,6%,-6.4%,nt,?,?,?
Cc1ccc(C2Nc3ccc4ccccc4c3C3=C2C(=O)CC(C)(C)C3)o1 (stereo not drawn),-4%,0%,-13%,-4.4%,4%,19%,?,?
O=C(COc1ccccc1)N(Cc1cccs1)C1CCS(=O)(=O)C1 (stereo not drawn),-2%,0%,nt,nt,-4%,-1%,nt,nt
N#Cc1c(SCC(=O)Nc2nncs2)sc2c(O)cc(=O)[nH]c12,2%,-2%,nt,nt,?,-9%,10%,3%[46.1 µM]
COc1ccc(OCC(=O)Nc2nc3ccccc3[nH]2)cc1,-1%,4%,-9%,1.8%,-52%,5%,11%,6%
Cc1cc(NC(=O)CSc2nc3ccccc3n2CC(=O)N2CC(C)CC(C)C2)no1 (stereo not drawn),14%,0%,13%,1.2%,-5%,5%,-13%,7%
CC(C(=O)NCc1cccnc1)c1ccc([N+](=O)[O-])cc1 (stereo not drawn),3%,0%,nt,nt,-9%,-5%,26%,-25%
CC(=O)Nc1ccc(C(=O)Nc2ccc(S(=O)(=O)N3CCCCC3)cc2)cc1,9%,-1%,nt,nt,1%,-9%,0%,3%

# Structural class, the compounds so far containing a cyano group.
SMILES,RE007 growth inh,SARS PLpro yeast,Cruzain inh noDet,Cruzain inh Det,NS1 function inh,2A StopGo,LASV entry inh,MARV entry inh
COCCn1c(SCC#N)nnc1-c1ccc(OC)cc1,0%,10%,-4%,1.0%,15%,nt,0%,5%
CC1C(C#N)=C(N)OC2=C1C(=O)CCC2 (stereo not drawn),14%,-4%,0%,4.7%,11%,-7%,-3%,?
N#CCCn1c(=O)n(CCC#N)c2ccccc21,7%,-1%,nt,nt,4%,-16%,-22%,-21%[46.1 µM]
C/C(=C\C=C(C#N)C#N)c1cc(C#N)c(N)o1,-12%,0%,nt,nt,-1%,-22%,3%,1%[46.1 µM]
N#Cc1c(SCC(=O)Nc2nncs2)sc2c(O)cc(=O)[nH]c12,2%,-2%,nt,nt,?,-9%,10%,3%[46.1 µM]

# The listing picks up with the 2 entries that preceded the break.
SMILES,RE007 growth inh,SARS PLpro yeast,Cruzain inh noDet,Cruzain inh Det,NS1 function inh,2A StopGo,LASV entry inh,MARV entry inh
CC(C(=O)NCc1cccnc1)c1ccc([N+](=O)[O-])cc1 (stereo not drawn),3%,0%,nt,nt,-9%,-5%,26%,-25%
CC(=O)Nc1ccc(C(=O)Nc2ccc(S(=O)(=O)N3CCCCC3)cc2)cc1,9%,-1%,nt,nt,1%,-9%,0%,3%
CC(/C=N/n1c(-c2ccncc2)n[nH]c1=S)=C\c1ccco1,-3%,1%,nt,nt,4%,-11%,nt,nt
O/N=C(/c1ccc(F)cc1)C1CC1c1c(F)cccc1Cl (stereo not drawn),-7%,-2%,nt,nt,-48%,?,?,?
O=C(NCCN1C(=O)S/C(=C/c2cccnc2)C1=O)C1CC(=O)N(Cc2ccccc2)C1 (stereo not drawn),-9%,0%,nt,nt,nt,-7%,-18%,-7%
O=C(Cn1c(=O)c2cccn2c2ccccc21)Nc1cc(F)ccc1F,2%,4%,-1%,-1.2%,8%,6%&-13%,?,nt
COc1ccc(NC(=O)c2ccc(N3C(=O)C4CC=C(C)CC4C3=O)cc2)c(OC)c1 (stereo not drawn),-17%,-1%,nt,nt,-6%,-19%,nt,nt
